# CBX7 inh: blocks human CBX7 binding to H3K27me3 peptide. 1.1% of 66,000 active. normalised signal (fraction of DMSO) (test concentration not listed). AlphaScreen His6-CBX7 / biotin-H3K27me3 peptide binding; hits give low values. AID 1224903. O95931; in the data active = normalised signal below about 0.5;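 also: 100 nL library stock added to about 20 µL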
# Target sequence (O95931 whole entry, looked up): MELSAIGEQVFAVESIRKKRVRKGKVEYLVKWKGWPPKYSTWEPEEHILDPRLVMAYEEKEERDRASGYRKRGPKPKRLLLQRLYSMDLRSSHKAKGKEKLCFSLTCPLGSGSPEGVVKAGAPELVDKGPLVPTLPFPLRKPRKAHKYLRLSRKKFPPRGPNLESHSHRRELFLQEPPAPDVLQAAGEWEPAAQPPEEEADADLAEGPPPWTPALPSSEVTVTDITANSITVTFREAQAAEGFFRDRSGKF
# CBX7 inh z-score: second read-out of CBX7 inh, no call of its own (marks repeat the call); z-score; measured here: z-score of CBX7 signal; some inactives read as strong as hits; reference of the scale not given here;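 same signal on another scale; lower means less binding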
# Active calls of the source: *; & = joins results of further samples. Only part of the results is shown; count on the stated rates, not on these rows.
1	O=C(Nc1cccc(Cl)c1)Nc1nc(-c2ccccc2)cs1
  CBX7 inh = 1	CBX7 inh z-score = 0.038
2	CCOCCCNC(=O)c1ccc2c(c1)N(CC)C(=O)CS2
  CBX7 inh = 0.99	CBX7 inh z-score = -0.14
3	CCOC(=O)c1nnn(-c2nonc2N)c1CN1CCC(C(N)=O)CC1
  CBX7 inh = 1.2	CBX7 inh z-score = 2
4	Cc1ccc(Cn2c(=O)c(CCC(=O)NCc3ccccc3Cl)nc3ccccc32)cc1
  CBX7 inh = 0.75	CBX7 inh z-score = -1
5	COC(=O)c1ccc2c(c1)N(Cc1ccc(Cl)cc1)C(=O)c1ccccc1S2(=O)=O
  CBX7 inh = 1.1	CBX7 inh z-score = 1.3
6	COc1ccc(-n2c(Cc3cc(=O)[nH]c(=O)[nH]3)nnc2SCC(=O)NCCc2ccccc2)cc1
  CBX7 inh = 1	CBX7 inh z-score = -0.0057
7	COc1ccc(Br)cc1CNC(=O)C1CCCN(c2nc3ccccc3o2)C1 (configuration not stated)
  CBX7 inh = 0.96	CBX7 inh z-score = -1.2
8	Cc1ccc(C(=O)Nc2c3c(nn2-c2ccccc2C)CS(=O)(=O)C3)cc1
  CBX7 inh = 1.1	CBX7 inh z-score = 2.8
9	COc1ccc(NC(=O)c2cn(-c3ccccc3)nc2-c2ccc(C)cc2)cc1
  CBX7 inh = 0.82	CBX7 inh z-score = -2.6
10	Cc1ccc(NC(=O)c2ccccc2O)nc1
  CBX7 inh = 0.92	CBX7 inh z-score = -0.9
11	CC(CCc1ccccc1)NC(=O)c1cnn2c(C(F)(F)F)cc(-c3ccccc3)nc12 (configuration not stated)
  CBX7 inh = 1	CBX7 inh z-score = 1
12	O=C(NCc1ccccc1)c1cc(-c2ccncc2)nc2ccc(S(=O)(=O)N3CCOCC3)cc12
  CBX7 inh = 0.99	CBX7 inh z-score = -0.21
13	COc1ccc(-c2cc(C(=O)Nc3sc4c(c3C#N)CCC4)no2)cc1OC
  CBX7 inh = 1.2	CBX7 inh z-score = 1.9
14	C=CCNC(=O)C1CC(=O)N(c2ccc(OCC(=O)Nc3cc(C)cc(C)c3)cc2)C1 (configuration not stated)
  CBX7 inh = 0.94	CBX7 inh z-score = -1.2
15	COc1ccc(-c2cc(C(=O)NCc3ccccc3Cl)c3ccccc3n2)cc1
  CBX7 inh = 0.95	CBX7 inh z-score = -2.4

16	COc1ccc(-c2[nH]c(-c3ccc(F)cc3)nc2SCC(=O)Nc2ccc3c(c2)OCO3)cc1
  CBX7 inh = 0.96	CBX7 inh z-score = -1
17	O=C(CSc1nnc(CNC(=O)c2cccs2)o1)Nc1cc(C(F)(F)F)ccc1Cl
  CBX7 inh = 1	CBX7 inh z-score = 1.4
18	O=C(Cn1nc(-c2ccc(Cl)cc2)ccc1=O)NC1CCCCC1
  CBX7 inh = 1	CBX7 inh z-score = 0.87
19	O=C(CCN1CCC(c2ccccc2)C1)c1ccco1 (configuration not stated)
  CBX7 inh = 1.1	CBX7 inh z-score = 1.1
20	Cc1ccc(-c2nnc(-c3cc4c(ccc5ccccc54)oc3=O)o2)cc1
  CBX7 inh = 0.92	CBX7 inh z-score = -0.87
21	O=C(Nc1nnc(C2CCCCC2)s1)c1ccccc1Cl
  CBX7 inh = 1.1	CBX7 inh z-score = 2.8
22	CCCn1c(=N)n(CCOc2ccc(OC)cc2)c2ccccc21
  CBX7 inh = 0.98	CBX7 inh z-score = -0.62
23	CCc1cc2c(oc(=O)c3ccccc32)c(CN2CCN(C)CC2)c1O
  CBX7 inh = 0.34*	CBX7 inh z-score = -13*
24	Cc1ccc(-c2nc(S(=O)(=O)c3ccc(C)cc3)c(N3CCCCC3)o2)cc1
  CBX7 inh = 0.83	CBX7 inh z-score = -6
25	CCn1c(SCC(=O)NCC2CCCO2)nnc1-c1c[nH]c2ccccc12 (configuration not stated)
  CBX7 inh = 1	CBX7 inh z-score = 0.16
26	O=c1[nH]c2ccccc2nc1-c1ccccc1NCc1ccc(F)cc1
  CBX7 inh = 1.2	CBX7 inh z-score = 1.2
27	CCOc1ccc(C2CC(=O)Nc3cc(OC)cc(OC)c32)cc1 (configuration not stated)
  CBX7 inh = 0.96	CBX7 inh z-score = -0.47
28	CCC(=O)N1CCc2cc(S(=O)(=O)NC(C(=O)NCCc3ccccc3)C(C)C)ccc21 (configuration not stated)
  CBX7 inh = 1	CBX7 inh z-score = 0.93
29	COc1cc2ccccc2cc1C(=O)Nc1cccc(-c2nc3cc(C)ccc3o2)c1C
  CBX7 inh = 1	CBX7 inh z-score = 0.036
30	O=C(NCCCN1CCN(C2CCCCC2)CC1)C1CCN(c2nnc(-n3cccc3)s2)CC1
  CBX7 inh = 1.9	CBX7 inh z-score = 9.6

# Molecules from the list above that have an aryl methoxy group (9):
6	COc1ccc(-n2c(Cc3cc(=O)[nH]c(=O)[nH]3)nnc2SCC(=O)NCCc2ccccc2)cc1
  CBX7 inh = 1	CBX7 inh z-score = -0.0057
7	COc1ccc(Br)cc1CNC(=O)C1CCCN(c2nc3ccccc3o2)C1 (configuration not stated)
  CBX7 inh = 0.96	CBX7 inh z-score = -1.2
9	COc1ccc(NC(=O)c2cn(-c3ccccc3)nc2-c2ccc(C)cc2)cc1
  CBX7 inh = 0.82	CBX7 inh z-score = -2.6
13	COc1ccc(-c2cc(C(=O)Nc3sc4c(c3C#N)CCC4)no2)cc1OC
  CBX7 inh = 1.2	CBX7 inh z-score = 1.9
15	COc1ccc(-c2cc(C(=O)NCc3ccccc3Cl)c3ccccc3n2)cc1
  CBX7 inh = 0.95	CBX7 inh z-score = -2.4
16	COc1ccc(-c2[nH]c(-c3ccc(F)cc3)nc2SCC(=O)Nc2ccc3c(c2)OCO3)cc1
  CBX7 inh = 0.96	CBX7 inh z-score = -1
22	CCCn1c(=N)n(CCOc2ccc(OC)cc2)c2ccccc21
  CBX7 inh = 0.98	CBX7 inh z-score = -0.62
27	CCOc1ccc(C2CC(=O)Nc3cc(OC)cc(OC)c32)cc1 (configuration not stated)
  CBX7 inh = 0.96	CBX7 inh z-score = -0.47
29	COc1cc2ccccc2cc1C(=O)Nc1cccc(-c2nc3cc(C)ccc3o2)c1C
  CBX7 inh = 1	CBX7 inh z-score = 0.036

# (list continues)
31	Cc1ccc(-n2c(Cc3cccn3C)nnc2SCC(=O)NC2CCCC2)cc1
  CBX7 inh = 0.91	CBX7 inh z-score = -2.1
32	CC1CC(C)CN(CCCNC(=O)Cn2nc(-c3ccc(Cl)cc3)ccc2=O)C1 (configuration not stated)
  CBX7 inh = 1	CBX7 inh z-score = 1.4
33	Cc1ccc(C)c2[nH]c(=O)c(CCNC(=O)c3cccc4ccccc34)cc12
  CBX7 inh = 1.2	CBX7 inh z-score = 0.27
34	Cc1ccc(-n2cc(-c3ccc4c(c3)OCO4)nc2SCC(=O)Nc2ccc(C)cc2C)cc1
  CBX7 inh = 0.58	CBX7 inh z-score = -4.2
35	CC1CCC(NC(=O)C2c3cccn3CC(=O)N2Cc2ccccc2)CC1 (configuration not stated)
  CBX7 inh = 0.98	CBX7 inh z-score = -0.31
36	CCn1c(SCC(=O)Nc2ccc3c(c2)OCCO3)nnc1-c1c[nH]c2ccccc12
  CBX7 inh = 1.2	CBX7 inh z-score = 1.1
37	CCN(CC)CCNc1ncnc2c1cnn2-c1ccc(Cl)cc1
  CBX7 inh = 1.1	CBX7 inh z-score = 0.86
38	Cc1nc2ccc(C(=O)O)cc2c2c1CC(C)O2 (configuration not stated)
  CBX7 inh = 1.1	CBX7 inh z-score = 1.9
39	CCOC(=O)c1ccc(Nc2nc(-c3cc4cc(OC)ccc4oc3=O)cs2)cc1
  CBX7 inh = 1.1	CBX7 inh z-score = 1.9
40	Cc1oc(-c2ccc(Cl)cc2)nc1C(=O)NCc1ccc2c(c1)OCO2
  CBX7 inh = 1.1	CBX7 inh z-score = 0.18
41	COc1ccc(CCC(=O)Nc2ccc(-c3noc(Cc4ccc(OC)cc4)n3)cc2)cc1
  CBX7 inh = 0.98	CBX7 inh z-score = -0.23
42	Cc1cc(C)c(C#N)c(Nc2ccccc2Cl)n1
  CBX7 inh = 1.1	CBX7 inh z-score = 3.4
43	COc1ccc(NC2c3ncccc3C(=O)N2Cc2ccc(F)cc2)cc1Cl (configuration not stated)
  CBX7 inh = 0.62	CBX7 inh z-score = -4.9
44	CCc1nnc(NC(=O)c2ccc(S(=O)(=O)N3CCc4ccccc4C3)cc2)o1
  CBX7 inh = 0.63	CBX7 inh z-score = -8.3
45	O=C1CC(N2CCC(O)CC2)C(=O)N1c1ccccc1 (configuration not stated)
  CBX7 inh = 1.1	CBX7 inh z-score = 1.6

46	O=C(CCNC(=O)Cn1ccc2ccccc2c1=O)NCCN1CCOCC1
  CBX7 inh = 1	CBX7 inh z-score = 0.47
47	CN(C(=O)Cn1ncc2c1-c1ccccc1OC2)c1ccccc1F
  CBX7 inh = 0.84	CBX7 inh z-score = -4.6
48	O=S(=O)(Nc1nc2ccccc2nc1Nc1ccc(F)cc1)c1ccc(Br)cc1
  CBX7 inh = 1	CBX7 inh z-score = 0.8
49	CC1CCC(N2CC(=O)N(C3CCCCC3)C(c3ccc(Cl)cc3)C2=O)CC1 (configuration not stated)
  CBX7 inh = 0.99	CBX7 inh z-score = -0.29
50	COc1cccc(/C=C/c2nc3ccccc3c(=O)n2-c2ccc(Br)c(C)c2)c1OC
  CBX7 inh = 0.98	CBX7 inh z-score = -0.76
51	Cc1ccc(N(CC(=O)Nc2cccc(F)c2)S(=O)(=O)c2c(C)noc2C)cc1
  CBX7 inh = 0.98	CBX7 inh z-score = -0.19
52	CN1C(=O)CC(c2ccccc2)Sc2ccccc21 (configuration not stated)
  CBX7 inh = 1.1	CBX7 inh z-score = 2
53	Cc1ccc(CCNC(=O)C(NS(=O)(=O)c2ccc3c(c2)CCC(=O)N3)c2ccccc2)cc1 (configuration not stated)
  CBX7 inh = 0.96	CBX7 inh z-score = -1.3
54	Clc1ccccc1Nc1nc2nonc2n2nnnc12
  CBX7 inh = 0.92&1.1	CBX7 inh z-score = -1&2.7
55	Cc1cccc(OCC(O)Cn2c(C)nc3ccccc32)c1 (configuration not stated)
  CBX7 inh = 1.1	CBX7 inh z-score = 1.4
56	Cc1ccccc1NC(=O)C1CCN(S(=O)(=O)c2ccc3c(c2)CCC(=O)N3)CC1
  CBX7 inh = 1	CBX7 inh z-score = 1.1
57	CCOCCCNc1ncc2c(n1)CC(c1ccccc1Cl)CC2=O (configuration not stated)
  CBX7 inh = 0.92	CBX7 inh z-score = -0.87
58	Cc1oc2c(CN3CCC(C)CC3)c(O)ccc2c(=O)c1-c1nc2ccccc2s1
  CBX7 inh = 1	CBX7 inh z-score = 1.3
59	CCCCNS(=O)(=O)c1cc(-c2nn(C)c(=O)c3ccccc23)ccc1C
  CBX7 inh = 0.84	CBX7 inh z-score = -1.8
60	CCC(C)NC(=O)C1CCN(c2cc(C)nc3c(-c4ccc(OC)c(OC)c4)c(C)nn23)CC1 (configuration not stated)
  CBX7 inh = 1	CBX7 inh z-score = 0.0049
61	COc1ccc(OC)c(NC(=O)c2c(NC(=O)c3cccs3)sc3c2CCCC3)c1
  CBX7 inh = 1.1	CBX7 inh z-score = 0.79
62	Cc1ccc(NC(=O)Cn2cc(S(=O)(=O)c3ccccc3)c(=O)c3cc4c(cc32)OCO4)cc1
  CBX7 inh = 0.84	CBX7 inh z-score = -2.3
63	O=C1CCc2cc(S(=O)(=O)NC(Cc3ccccc3)C(=O)Nc3cccc(F)c3)ccc2N1 (configuration not stated)
  CBX7 inh = 1	CBX7 inh z-score = 0.089

# High-throughput results from PubChem BioAssay.
